Calb FLC: affects C. albicans growth with fluconazole; C. albicans CaCi-2 (fluconazole-resistant clinical isolate) + fluconazole, Alamar Blue growth, 48 h; growth inhibition, % (test concentration not listed); 300,000 compounds, 0.57% hits;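 active = most replicates above 75%; inconclusive = exactly half above 75%; inactive = most below 75%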;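 note: all wells also contain fluconazole at 8 µg/ml as a sub-toxic cotreatment; 0% = median of DMSO wells and 100% = median of geldanamycin control wells; wells of about 8 µL received 7.5 nL stock; the first replicate is given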
T cruzi inh: blocks replication of Trypanosoma cruzi; T. cruzi beta-gal in NIH3T3, luminescence, 90 h; inhibition, % (no concentration beside the values); 300,000 compounds, 1.4% hits; AID 1885;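 active = mean inhibition across valid replicates above about 55%, limit read from the data; inconclusive = mean below that limit but half or more replicates reach it; inactive = mean below it, under half of replicates reach it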;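 note: signal also drops with host cell toxicity which is not excluded here; 0% = plate median of DMSO wells and 100% = zero luminescence signal; higher percent means less beta-gal luminescence so fewer parasites; stock transfer was 50 nL into about 50 µL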
Beta cell apopt: beta cell apoptosis inhibition; INS-1E cytokine-induced death, ATP luminescence, 48 h; percent of positive-control rescue, neutral wells zero; protection from apoptosis, % (concentration not given with the values); 300,000 compounds, 0.8% hits; AID 435005;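 active = all replicates at 75% or more, or half of them and the mean; inconclusive = half reach 75% but not the mean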;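 note: 0% = cytokine-treated negative control wells and 100% = positive control rescue; higher means more ATP so stronger rescue from cytokine killing; wells of about 40 µL received 100 nL stock; the first replicate is given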
Vif TR-FRET: inhibitors of Vif binding to APOBEC3G peptide, primary screen, biochemical, TR-FRET, GST-Vif 1-94, biotin-A3G peptide, dose response retest (AID 1117319); TR-FRET GST-Vif / biotin-A3G peptide binding; higher % means a stronger effect; test concentration not given here; strong numbers were not always called active; inhibition, %, or IC50 in µM where a hit was titrated; 260,000 compounds, 0.57% hits;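 active = above the screen mean plus three standard deviations and confirmed in dose response; inconclusive = results disagree or hit not tested in dose response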;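 note: Vif residues 1-94 fused to GST binding biotinylated APOBEC3G peptide 110-148; 0% = full assay without inhibitor and 100% = GST in place of GST-Vif; retest series ran down from 100 µM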
Bfl-1 A1 inh: inhibitors of the anti-apoptotic protein A1, read as caspase activation | MEF A1-2A-BIM cells, Caspase-Glo 3/7 luminescence, 3 h; percent of clofoctol response, vehicle zero | caspase activation, % (concentration not given with the values) | 330,000 compounds, 0.066% hits;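 active = over half of replicate activation scores above 10%, or exactly half above 10 with the replicate mean above 10; inconclusive = replicate mean below 10 yet half the replicates above 10; inactive = over half of replicates below 10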;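 note: wells of about 30 µL received 50 nL stock; many hits fall short of the cut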
MLL AF4-AF9 inh: inhibitors of human MLL-AF4/AF9 interaction; AlphaScreen, biotin-AF4 peptide binding to FLAG-AF9; inhibition, % at 10 µM; 350,000 compounds, 0.47% hits; AID 651704; P42568;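 active = every replicate reaching a set inhibition limit, whatever the replicate mean, cut at about 25% in these data; inconclusive = mean inhibition reaches that limit but some replicates miss it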;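 note: 0% = plate neutral control median and 100% = total signal loss; the record names both 10 and 1 µM as test concentration; the first replicate is given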
Target sequence (P42568 whole entry, looked up): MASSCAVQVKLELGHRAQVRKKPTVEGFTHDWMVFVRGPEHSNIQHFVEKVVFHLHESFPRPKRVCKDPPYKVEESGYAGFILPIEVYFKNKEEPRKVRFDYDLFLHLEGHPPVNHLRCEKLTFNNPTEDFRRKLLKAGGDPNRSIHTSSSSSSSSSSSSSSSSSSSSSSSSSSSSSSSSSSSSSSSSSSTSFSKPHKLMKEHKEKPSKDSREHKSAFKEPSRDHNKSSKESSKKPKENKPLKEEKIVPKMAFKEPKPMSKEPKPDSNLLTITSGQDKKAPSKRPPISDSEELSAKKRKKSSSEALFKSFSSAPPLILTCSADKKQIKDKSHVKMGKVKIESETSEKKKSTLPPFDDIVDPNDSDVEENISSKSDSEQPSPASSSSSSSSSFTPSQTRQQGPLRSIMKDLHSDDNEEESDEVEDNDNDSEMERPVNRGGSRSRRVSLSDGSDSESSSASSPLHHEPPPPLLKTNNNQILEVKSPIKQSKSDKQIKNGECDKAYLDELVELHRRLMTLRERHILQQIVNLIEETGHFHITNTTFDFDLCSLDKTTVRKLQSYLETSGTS
RanGTP-Impb inh: inhibitors of RanGTP-importin-beta interaction, primary screen, biochemical, FRET, CFP-Ran, YFP-importin-beta, homogeneous. cell-free CFP-Ran/YFP-importin-beta FRET ratio. inhibition, % (no concentration beside the values). 300,000 compounds, 1.1% hits;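 active = most replicates above 15%; inconclusive = exactly half above 15%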;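 note: 0% = DMSO wells and 100% = Ran loaded with GDP instead of GTP; wells of about 40 µL received 100 nL stock; the first replicate is given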
LANA-H2B inh: blocks KSHV LANA binding to histone H2A/H2B. Q9QR71. cell-free LANA-H2A/H2B peptide, fluorescence polarization. inhibition, % (concentration not given with the values). 320,000 compounds, 0.6% hits; in the data active = inhibition mostly above about 10%, no sharp cut-off; inactive = mostly below about 6.7%;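 note: stock transfer was 7.5 nL into about 10 µL; 0% = median of vehicle wells and 100% = median of positive control wells; one replicate is shown; the record names a cut of 25% in any replicate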
The depositor's hits bear a star; ? = inconclusive; nt = no result given; & = joins results of further samples; ! = a repeat was not active. Not a hit list; about 4.3% have a hit in one of these screens.

SMILES	Calb FLC	T cruzi inh	Beta cell apopt	Vif TR-FRET	Bfl-1 A1 inh	MLL AF4-AF9 inh	RanGTP-Impb inh	LANA-H2B inh
COc1ccc(C(c2nnnn2CCc2ccccc2)N2CCN(C)CC2)cc1OC (stereo not drawn)	-7	10	nt	6%	nt	nt	-3.5	nt
COc1ccc(-c2c(-c3cc(OC)cc(OC)c3)n(C)c3ccc(-c4cnc(OC)nc4)cc23)cc1	nt	nt	6	nt	-1.4	2.2	nt	0.7
CN=c1c([N+](=O)[O-])nn(-c2ccc3c(c2)OCCO3)n1O	26	61*	34	-4%	-1.8	-1.1	3.7	-3.6
COC(=O)c1ccc(OC)c(CSc2nnc(COc3ccc(Cl)cc3)o2)c1	-4	13	nt	-1%	-0.4	nt	2.1	3.8
CN1CCN(C2CCCCCC2)CC1	-6	28	3	17%	1.0	nt	-3.8	2.4
Cc1cccc(NC(=O)CSCC(=O)Nc2nnc(C3CC3)s2)c1	-4	0	1	1%	0.9	1.6	-4.7	-0.6
O=C(Nc1cccc(O)c1)c1cccc(S(=O)(=O)Nc2cccc(O)c2)c1	-1	-9	5	nt	0.7	4.6	-2.4	-4.7
Cn1cccc1/C=C1\SC(=Nc2cccc(O)c2)NC1=O	3	0	1	1%	-4.7	25*	5.8	-2.7
COc1ccc(C(=O)CCC(=O)Nc2cc(Cl)c(O)c(Cl)c2)cc1	-8	-3	0	5%	-0.6	-3.5	5.1	-5.4
O=C(/C=C/NCc1ccc(F)cc1)c1ccccc1	-4	13	-1	-5%	-0.2	nt	5.4	2.1
COc1ccc(/C=C/C(=O)OCC(=O)Nc2ccc(Cl)c(S(=O)(=O)N(C)C)c2)cc1OC	-11	-15	-2	23%	-1.0	7.4	1.2	-3.2
O=c1[nH]nc(Cc2ccccn2)c2ccccc12	-22	-10	-1	11%	-0.8	nt	-5.8	1.6
COc1ccc(CC2SC(=Nc3ccc(F)cc3)NC2=O)cc1 (stereo not drawn)	28	4	0	-3%	1.0	0.1	-2.3	-3.6
O=C(CSc1nnnn1Cc1ccccc1)NC1CCCCC1	-6	5	7	?	-2.0	-4.4	-1.1	-2.5
O=C(O)c1cnc(-c2ccccc2)nc1Sc1ccccc1Cl	96*	-7	7	-10%	-0.2	nt	3.4	4.9
Cc1cc2oc3c(c(=O)c2cc1C)C(c1cccc(Br)c1)N(Cc1ccco1)C3=O (stereo not drawn)	24	27	9	-3%	-0.3	nt	?	2.3
COc1ccc(C(C(=O)NC2CCCCC2)N(C(=O)c2ccco2)c2ccccc2C(C)=O)cc1OC (stereo not drawn)	56	-20	0	nt	-0.2	-21	4.5	1.7
CCc1ccc(C2NC(=S)NC3=C2C(=O)CCC3)cc1 (stereo not drawn)	9	-13	6	nt	0.5	2.4	-0.8	3.8
Cc1ccc2nc(SCC(=O)N/N=C/c3ccc(C(=O)O)cc3)cc(C)c2c1	-6	3	-3	1%	0.2	1.7	-0.2	-1.8
O=c1cc(-c2ccccc2)nc(SCc2ccc(F)cc2)[nH]1	10	-3	4	0%	0.8	nt	3.4	0.7
CCn1c2ccccc2c2cc(NC(=O)CSc3nnc(-c4ccc(OC)cc4)n3N)ccc21	2	-8	25	-4%	1.0	nt	-4.4	-6.3
CC(NC(=O)COC(=O)CCc1nc2ccccc2c(=O)[nH]1)c1ccccc1 (stereo not drawn)	-3	0	-4	13%	-0.2	-0.5	-0.5	-3.1
COc1ccc(CN(C)S(=O)(=O)c2nnc(NC(=O)c3cccc(C)c3)s2)cc1OC	20	-11	7	nt	0.5	-3.4	-2.7	1.2
C#CCn1c(=O)c2c(ncn2C)n(C)c1=O	4	-20	-7	nt	0.8	-1.5	0.6	0.9
CC(C)(CNS(=O)(=O)c1cccs1)N1CCOCC1	nt	nt	0	-3%	0.9	-0.7	nt	2.9
(further entries)
SMILES	Calb FLC	T cruzi inh	Beta cell apopt	Vif TR-FRET	Bfl-1 A1 inh	MLL AF4-AF9 inh	RanGTP-Impb inh	LANA-H2B inh
On1c(-c2ccc(Cl)cc2Cl)nc2ncccc21	5	-14	-4	-3%	-1.7	-1.7	0.6	-4.0
C=CCn1c(COc2ccccc2C)nnc1SCC(=O)O	1	-23	-2	?	0.2	nt	2.0	1.9
COCc1c(C(=O)NC2CCCCC2)sc2cccc(F)c12	nt	nt	-1	nt	0.6	-9.5	nt	2.6
O=C(CCc1nnc2ccc(N3CCC4(CC3)OCCO4)nn12)NCc1ccccc1Cl	-1	-10	-4	nt	-1.0	-0.8	?	-5.3
C#CCOCCOCCOCCNc1nc(N2CCN(C(=O)[C@H](CCCCN)n3cc(C(N)CO)nn3)CC2)nc(N2CCN(C(=O)[C@H](CCCCN)n3cc(C(N)COC(=O)C(F)(F)F)nn3)CC2)n1 (stereo partly drawn)	-4	-16	1	nt	1.2	nt	-8.8	0.3
CN(CC(=O)Nc1cccc(F)c1)C(=O)c1cccc(N2C(=O)CCC2=O)c1	nt	nt	-1	-3%	-0.6	-3.0	nt	-0.5
Cc1ccc(OCc2ccc(C(=O)N3CCCC3)o2)c([N+](=O)[O-])c1	2	5	0	nt	-0.3	-3.5	-2.9	-1.2
Cc1ccc(S(=O)(=O)N2CCN(C(=O)N3CCCC3)CC2)cc1	-2	2	-7	nt	0.1	-0.5	-0.1	2.3
CCn1c(SCC(=O)N/N=C/c2ccc(C)o2)nnc1-c1ccc(C(C)(C)C)cc1	3	3	4	14%	-0.2	nt	2.4	-2.1
COc1ccccc1N1CCN(CC(O)c2c(C)[nH]c3ccccc23)CC1 (stereo not drawn)	3	5	5	0%	-0.2	7.8	-4.8	-0.6
CC[n+]1c(/C=C2\C=C(C)CC(C)(C)C2)sc2ccccc21	-11	46	3	58µM*!	0.1	nt	8.2	0.7
Cc1ccc(CNC(=O)CCC(=O)N2CC(C)Oc3ccccc32)cc1 (stereo not drawn)	-1	-5	0	nt	0.8	-2.8	1.0	-2.9
CCC1(C)CC(C(CC(=O)O)c2ccc(C)cc2)CCO1 (stereo not drawn)	-19	6	0	10%	?	nt	1.3	2.1
O=C(NCc1ccco1)c1nnc(Cc2ccc(F)cc2)o1	-2	-3	0	27%	0.3	3.4	6.6	2.2
c1ccc(C(c2ccccc2)N2CCN(Cc3nnnn3C3CCCC3)CC2)cc1	2	22	1	3%	0.5	nt	4.3	0.6
COC(=O)c1nnn(-c2nonc2N)c1CSc1ccc(Cl)cc1	17	15	-3	?	0.1	nt	-1.9	4.2
COc1cc(NS(=O)(=O)c2cn(C)cn2)cc(OC)c1	-1	-3	-1	nt	-0.3	0.7	2.1	1.3
O=[N+]([O-])c1ccc(S(=O)(=O)Nc2cccc(-c3ccc(N4CCOCC4)nn3)c2)cc1	16	7	11	2%	-2.6	0.6	-2.4	-6.4
CCCNC(=O)OCC12CC3CC(CC(C3)C1)C2	-1	14	-7	11%	-1.1	-3.8	?	5.8
COc1ccccc1NS(=O)(=O)c1cc(N)ccc1N1CCCC1	nt	nt	0	2%	0.2	6.9	nt	-2.4
CCc1cc2cc3c(cc2nc1SCC(=O)N1CCN(C(=O)c2ccco2)CC1)OCO3	16	18	-15	12%&12%	-0.4	nt	3.6	4.0
c1csc(-c2nn[nH]n2)c1	0	-1	-4	?	-0.4	nt	1.0	-4.2
CCN(C(=O)COC(=O)c1cccc(NS(=O)(=O)c2ccc(F)c(F)c2)c1)C1CCS(=O)(=O)C1 (stereo not drawn)	6	-6	0	3%	1.0	nt	4.0	-0.9
O=C(COC(=O)c1cc([N+](=O)[O-])ccc1Cl)NC1CCCC1	4	2	1	-1%	0.5	-6.0	-0.9	-0.4
COc1ccccc1CNC(=O)c1ccc2nc(N3CCOCC3)sc2c1	0	-12	3	nt	0.1	-4.1	-1.9	0.2
Additional records follow:
SMILES	Calb FLC	T cruzi inh	Beta cell apopt	Vif TR-FRET	Bfl-1 A1 inh	MLL AF4-AF9 inh	RanGTP-Impb inh	LANA-H2B inh
Cc1cccc(CCNC(=O)C2CCN(S(=O)(=O)c3cccc4cccnc34)CC2)c1	0	18	-13	nt	-0.8	-1.5	1.6	5.9
CN(CC(=O)Nc1ccc(Cl)c(Cl)c1)C(=O)CC1OC(=O)c2ccccc21 (stereo not drawn)	-1	-6	2	-5%	0.9	1.5	?	-2.6
CCc1nnc(NS(=O)(=O)c2ccc(N/C=C/C(=O)c3ccc(C)cc3)cc2)s1	-20	1	-10	nt	0.7	nt	-2.6	3.2
CCC1CCCCN1Cc1nc2c(c(=O)n(C)c(=O)n2C)n1CCCc1ccccc1 (stereo not drawn)	0	26	-4	nt	nt	0.2	?	-4.2
Cn1nc(C(=O)Nc2nc3ccccc3[nH]2)c2ccccc2c1=O	-1	-33	0	nt	-0.5	nt	3.0	-3.5
COc1ccc(CN2CCC(Cc3ccccc3)CC2)cc1OC	2	12	nt	nt	-0.3	-4.3	-3.5	-0.7
COCCN1Cc2cccc(C(=O)Nc3ccccc3OC)c2C1=O	-2	16	0	-1%	1.1	nt	-1.5	0.9
Cc1n[nH]c(C)c1Sc1ccccc1N=Cc1cc(Cl)cc([N+](=O)[O-])c1O	10	48	-6	-2%	1.7	nt	-2.5	-2.6
COC(=O)c1ccc(C(=O)OC)c(NC(=O)CSCc2ccccc2Br)c1	1	-1	-5	-3%	0.2	nt	0.6	4.3
COc1ccc(NC(=O)CSc2n[nH]c(C(C)C)n2)c([N+](=O)[O-])c1	4	-13	-15	7%	-0.4	3.2	1.0	-2.8
Cc1cc2cc3c(C)cc(=O)oc3c(C)c2o1	-10	0	6	-1%	-0.5	0.1	0.4	-3.3
CCC(=O)N(CCc1ccc(OC)c(OC)c1)Cc1cc2ccc(C)cc2n2nnnc12	12	1	-6	9%	0.7	-1.7	2.0	5.9
Cc1noc(C)c1COC(=O)C1CCN(S(=O)(=O)c2ccc(F)cc2)CC1	nt	nt	-6	-8%	-0.3	-0.4	nt	-0.3
O=C(O)C1C2C=CC(C2)C1C(=O)N1CCOCC1 (stereo not drawn)	-8	-7	-2	5%	0.4	4.1	3.0	2.3
O=C(NC1CCCC1)c1ccccc1OCc1ccccc1	1	0	0	5%	0.0	-3.2	8.5	0.3
O=C1N=c2ccc([N+](=O)[O-])cc2=C1c1sc(=O)[nH]c1O	1	-19	-2	nt	0.6	-17	-0.3	3.9
COc1cc(CNC2CCCCC2OC)cc(OC)c1 (stereo not drawn)	-5	-9	0	4%	0.6	-0.5	?	-4.9
O=C(O)COc1ccccc1/C=N/NC(=O)CSc1nc2ccccc2n1Cc1ccccc1	3	-5	7	1%	0.9	-2.0	-1.6	1.2
Cc1ccccc1OCC(=O)N/N=C/c1ccc(N(C)C)cc1	-54	-6	-1	6%	0.0	-0.2	2.4	-1.6
Cc1cc2sc3ccc(C#CC4(O)CCCCC4)cc3c(=O)c2cc1C	2	15	8	nt	0.5	-11	5.9	3.8
COC(=O)c1ccc(/C=N/Nc2nc(C)c(C)s2)cc1	11	-11	10	nt	-2.0	3.4	-17	-1.3
Cc1ccc(S(=O)(=O)N(Cc2cccc(C)c2)C(=O)N2CCN(C)CC2)cc1	-3	-11	nt	3%	-1.1	-3.0	1.1	-1.3
COc1ccc(-n2sc3ccc(F)cc3c2=O)cc1	nt	nt	19	nt	-11	-24	nt	2.5

High-throughput results (PubChem BioAssay)
